LANA-H2B inh: blocks KSHV LANA binding to histone H2A/H2B; inhibition, % (test concentration not listed); cell-free LANA-H2A/H2B peptide, fluorescence polarization; AID 2629; 0.6% of 320,000 active; Q9QR71; in the data active = inhibition mostly above about 10%, no sharp cut-off; inactive = mostly below about 6.7%;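 note: stock transfer was 7.5 nL into about 10 µL; 0% = median of vehicle wells and 100% = median of positive control wells; one replicate is shown; the record names a cut of 25% in any replicate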
Vif TR-FRET: inhibitors of Vif binding to APOBEC3G peptide, primary screen, biochemical, TR-FRET, GST-Vif 1-94, biotin-A3G peptide, dose response retest (AID 1117319); 0.57% of 260,000 active; TR-FRET GST-Vif / biotin-A3G peptide binding; higher % means a stronger effect; test concentration not given here; strong numbers were not always called active; inhibition, %; hits with a dose series show IC50 in µM;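 active = above the screen mean plus three standard deviations and confirmed in dose response; inconclusive = results disagree or hit not tested in dose response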;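 note: Vif residues 1-94 fused to GST binding biotinylated APOBEC3G peptide 110-148; 0% = full assay without inhibitor and 100% = GST in place of GST-Vif; retest series ran down from 100 µM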
Calb FLC: affects C. albicans growth with fluconazole; C. albicans CaCi-2 (fluconazole-resistant clinical isolate) + fluconazole, Alamar Blue growth, 48 h; growth inhibition, % (no concentration beside the values); 0.57% of 300,000 active; AID 1979;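 active = most replicates above 75%; inconclusive = exactly half above 75%; inactive = most below 75%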;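 note: all wells also contain fluconazole at 8 µg/ml as a sub-toxic cotreatment; 0% = median of DMSO wells and 100% = median of geldanamycin control wells; wells of about 8 µL received 7.5 nL stock; the first replicate is given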
HNF4A DNA FP: change in binding of human HNF4 alpha to DNA | 0.3% of 360,000 active | AID 1224865 | activity change, % at 10 µM | P41235 | HNF4a-FITC DNA binding, fluorescence polarization, 1 h; in the data active = activity change above about 30%, passing the limit was not always enough;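 note: controls were the assay level and a saturating level of protein; the project sought stronger binding though the title names inhibitors; some compounds called inactive have numbers as strong as hits; positive values seem to mean higher polarization but the record does not say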
Target sequence (P41235 whole entry, looked up): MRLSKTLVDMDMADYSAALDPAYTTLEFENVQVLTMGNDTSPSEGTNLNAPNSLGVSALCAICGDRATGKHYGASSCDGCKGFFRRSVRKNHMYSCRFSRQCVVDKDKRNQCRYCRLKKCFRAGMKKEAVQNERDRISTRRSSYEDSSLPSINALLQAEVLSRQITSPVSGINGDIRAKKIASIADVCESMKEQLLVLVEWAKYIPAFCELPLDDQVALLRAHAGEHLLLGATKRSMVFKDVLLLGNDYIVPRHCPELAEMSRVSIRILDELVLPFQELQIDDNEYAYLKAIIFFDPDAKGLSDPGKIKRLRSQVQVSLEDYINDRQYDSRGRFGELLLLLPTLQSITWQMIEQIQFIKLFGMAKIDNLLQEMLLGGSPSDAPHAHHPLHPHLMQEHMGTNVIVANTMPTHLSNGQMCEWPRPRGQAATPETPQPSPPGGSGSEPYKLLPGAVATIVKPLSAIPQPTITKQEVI
Beta2AR agonist: agonists of human beta-2 adrenergic receptor inducing internalization; Am2.2-beta2AR cells, FAP receptor internalization, flow cytometry; reference of the scale not given here; response, % (test concentration not listed); 0.43% of 340,000 active;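 active = response above a set limit, near 3 SD of response in nonfluorescent compounds, cut at about 42% in these data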;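 note: stock transfer was 100 nL into about 11 µL; a reference agonist was the positive control; negative values mostly stem from fluorescent compounds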
Target sequence (P07550 whole entry, looked up): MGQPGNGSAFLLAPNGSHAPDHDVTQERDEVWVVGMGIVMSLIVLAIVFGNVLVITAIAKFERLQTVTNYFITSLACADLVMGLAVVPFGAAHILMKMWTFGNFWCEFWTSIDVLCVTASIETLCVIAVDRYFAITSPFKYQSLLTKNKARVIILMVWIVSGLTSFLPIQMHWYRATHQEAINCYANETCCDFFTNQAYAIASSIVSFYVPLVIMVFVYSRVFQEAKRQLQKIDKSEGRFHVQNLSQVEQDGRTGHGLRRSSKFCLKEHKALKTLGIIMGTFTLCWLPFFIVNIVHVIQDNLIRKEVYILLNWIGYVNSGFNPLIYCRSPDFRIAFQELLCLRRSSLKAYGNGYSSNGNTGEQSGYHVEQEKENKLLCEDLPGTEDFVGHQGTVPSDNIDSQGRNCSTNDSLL
RanGTP-Imp inh: inhibitors of RanGTP-importin-beta interaction, primary screen, biochemical, FRET, CFP-Ran, YFP-importin-beta, homogeneous. AID 2216. 1.1% of 300,000 active. inhibition, % (test concentration not listed). cell-free CFP-Ran/YFP-importin-beta FRET ratio;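 active = most replicates above 15%; inconclusive = exactly half above 15%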;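 note: 0% = DMSO wells and 100% = Ran loaded with GDP instead of GTP; wells of about 40 µL received 100 nL stock; the first replicate is given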
ALR inh: human ALR oxidase inhibition via reduced H2O2; P55789; purified ALR, DTT oxidation, H2O2 HRP-luminol luminescence; inhibition, % (test concentration not listed); 3.8% of 290,000 active; AID 485317;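 active = mean and each replicate at 75% or more; inconclusive = only one of the two met; inactive = neither met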;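 note: stock transfer was 7.5 nL into about 7.5 µL; 0% = neutral wells and 100% = wells with inactivated enzyme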
An asterisk follows results filed as active; ? = inconclusive; . = no result given; & = joins results of further samples; ! = not confirmed by another sample.

SMILES	LANA-H2B inh	Vif TR-FRET	Calb FLC	HNF4A DNA FP	Beta2AR agonist	RanGTP-Imp inh	ALR inh
COc1cc(C2NC(=O)NC(c3ccccc3)=C2C(C)=O)c(Br)c(Br)c1O (centres undefined)	-6.7	.	0	1.9	-3	-5.4	34
Cc1ccc(S(=O)(=O)c2nc(-c3ccccc3)oc2SCC(=O)NCC2CCCO2)cc1 (centres undefined)	2.1	.	-1	-1.0	-10	1.0	-28
Cc1ccc(S(=O)(=O)N2CCN(S(=O)(=O)c3ccc(C)cc3)C3OCCOC32)cc1 (centres undefined)	0.8	0%	-9	2.5	-2	2.6	0
CN(C)c1cccc(C(=O)OCC(=O)Nc2ccccc2Sc2ccccc2)c1	0.6	6%	-4	2.4	12	9.0	7
Cc1cc(N)nc(C)c1C#N	3.5	4%	12	0.2	-6	1.7	-15
CCOc1ccc(C(=S)N2CCCC2)cc1OC	6.7	4%	4	0.7	3	-0.7	-36
COc1cc2c(cc1OC)C(C)N(CC(=O)Nc1ccc(S(=O)(=O)N3CCCC3)cc1)CC2 (centres undefined)	0.3	.	-3	5.7	16	2.0	-2
COc1cccc2sc3cc(NCc4ccc(C)o4)ccc3c(=O)c12	1.5	.	.	4.6	5	.	0
Cc1cc(C(=O)Nc2nccs2)c2cc(F)ccc2n1	1.6	.	2	-0.8	0	1.9	-8
COC(=O)c1ccc2c(=O)[nH]c(COC(=O)CCC(=O)c3ccc(Cl)cc3)nc2c1	3.5	-7%	.	6.8	8	?	6
COc1cccc(C2=NOC(C(=O)Nc3cccc(C(C)=O)c3)C2)c1 (centres undefined)	-2.9	29%	30	1.7	-7	3.6	1
COCCN(C(=O)COC(=O)/C=C/c1ccc(C(F)(F)F)cc1)c1c(N)n(Cc2ccccc2)c(=O)[nH]c1=O	1.5	-2%	1	4.1	1	7.2	-3
Nc1nonc1-n1nnc(C(=O)N/N=C/c2cc(Br)ccc2O)c1CNc1ccccc1	-5.5	.	88*	7.7	3	8.7	1
CC(C(=O)N1CCN(C=O)CC1)N1C(=O)c2ccccc2C1=O (centres undefined)	-2.0	1%	14	0.6	12	-0.8	6
Cc1ccc(S(=O)(=O)N/N=C\c2ccc(C)o2)cc1	-6.3	24%	19	-5.5	1	9.7	15
Cc1ccc(S(=O)(=O)N2CCCCC2)cc1NC(=O)CNc1ccccc1N1CCCC1=O	2.9	7%	.	-0.2	2	.	.
Cc1ccc(CN2CC(C(=O)Nc3ccc(C)cn3)CC2=O)cc1 (centres undefined)	.	-4%	-10	-0.9	-2	1.1	.
Cc1c(C(=O)NCCN2CCOC2=O)oc2c(F)cccc12	2.2	.	-3	2.7	0	0.9	-6
O=C(COc1ccc(Br)cc1)N1CCN(c2ccccc2)CC1	2.9	-4%	-3	-2.2	-6	-1.3	-19
CC(=O)NC(c1ccco1)c1ccc2cccnc2c1O (centres undefined)	-0.9	24%	-6	0.1	8	2.6	6
Cc1noc(C)c1COc1ccc(C(=O)Nc2ccccc2)cc1	-4.5	-12%	20	1.8	-6	-4.1	-2
Cc1ccc(-c2cccc(OC(=O)c3ccccc3F)c2)cc1	1.8	-2%	-20	-2.6	4	-0.7	4
O=C(Cc1ccc([N+](=O)[O-])cc1)N1CCCCCC1	-0.8	10%	-17	2.8	-5	9.4	-7
O=C(Nc1ccnn1C1CCN(Cc2cccc(OCCO)c2)CC1)C1CCCC1	-4.1	.	12	2.8	-4	2.1	-3

Five compounds drawn at random from those above, as already listed:
SMILES	LANA-H2B inh	Vif TR-FRET	Calb FLC	HNF4A DNA FP	Beta2AR agonist	RanGTP-Imp inh	ALR inh
CC(=O)NC(c1ccco1)c1ccc2cccnc2c1O (centres undefined)	-0.9	24%	-6	0.1	8	2.6	6
CC(C(=O)N1CCN(C=O)CC1)N1C(=O)c2ccccc2C1=O (centres undefined)	-2.0	1%	14	0.6	12	-0.8	6
Cc1c(C(=O)NCCN2CCOC2=O)oc2c(F)cccc12	2.2	.	-3	2.7	0	0.9	-6
Cc1noc(C)c1COc1ccc(C(=O)Nc2ccccc2)cc1	-4.5	-12%	20	1.8	-6	-4.1	-2
Nc1nonc1-n1nnc(C(=O)N/N=C/c2cc(Br)ccc2O)c1CNc1ccccc1	-5.5	.	88*	7.7	3	8.7	1

(next part)
SMILES	LANA-H2B inh	Vif TR-FRET	Calb FLC	HNF4A DNA FP	Beta2AR agonist	RanGTP-Imp inh	ALR inh
Cc1nn(Cc2c(F)c(F)c(F)c(F)c2F)c(C)c1NC(=O)c1ccc(COc2ccc(Cl)cc2Cl)o1	0.4	5%	-10	0.4	-2	-6.4	-22
Cc1nc(Nc2cc(F)ccc2C)c2nnn(Cc3ccccc3)c2n1	1.9	-1%	12	2.4	3	5.9	0
NC(=O)c1nsc(C(=O)N(CC(=O)NC2CCCCC2)c2ccc(Cl)cc2)c1N	-1.6	.	2	4.9	-3	1.4	.
COc1cc(OC)c(NS(=O)(=O)c2cn(C)cn2)cc1Cl	4.0	.	3	-0.9	2	-1.6	-9
Oc1ccc(/C=N/n2c(-c3ccco3)csc2=Nc2cccnc2)c(O)c1	0.4	21%	?	4.5	8	3.1	30
CN(Cc1cc2ccccc2[nH]c1=O)C(=O)COc1ccccc1	3.9	-2%	3	1.2	-3	3.9	-4
O=[N+]([O-])c1ccccc1N=Nc1ccc(O)cc1	-4.9	.	1	1.3	-1	-3.5	80*
O=C(COc1ccc(-c2nnco2)cc1)N1CCOCC1	1.0	11%	.	5.5	-3	.	-4
COc1ccc(OCCN(C)Cc2c(O)ccc3ccccc23)cc1	6.3	.	4	5.6	-3	?	10
COc1ccccc1OCc1nc2ccccc2s1	-6.5	8%	3	-1.0	10	3.2	3
COc1ccc(N2C(=O)CCC(C(C)=O)=C2C)cc1	-1.6	0%	-22	-0.3	-4	-3.3	-6
CC(Cc1cccs1)N(Cc1ccc(Cl)cc1)C(=O)c1ccncc1 (centres undefined)	-43	-8%	3	3.5	4	-2.3	-6

Entries of single compounds, quoted from the list. Screens in order: LANA-H2B inh, Vif TR-FRET, Calb FLC, HNF4A DNA FP, Beta2AR agonist, RanGTP-Imp inh, ALR inh
O=[N+]([O-])c1ccccc1N=Nc1ccc(O)cc1 reads -4.9, ., 1, 1.3, -1, -3.5, 80*
O=C(COc1ccc(-c2nnco2)cc1)N1CCOCC1 reads 1.0, 11%, ., 5.5, -3, ., -4

Remaining list, next part
SMILES	LANA-H2B inh	Vif TR-FRET	Calb FLC	HNF4A DNA FP	Beta2AR agonist	RanGTP-Imp inh	ALR inh
CCCC1Cc2c(sc(N)c2C#N)CO1 (centres undefined)	6.8	9%	1	8.2	-5	5.4	-58
CCSc1ncc(/C=N/Nc2ccccc2)n1C	-0.6	11%	-25	2.1	3	8.4	99*
O=C(Nc1cc(C(=O)N2CCCC2)ccc1N1CCCC1)C1CC1	-2.5	1%	?	0.0	-4	0.6	-37
COc1ccc(C2NC(=O)CCC2[N+](=O)[O-])cc1 (centres undefined)	2.3	0%	0	-1.6	0	6.2	6
CCN(CC(=O)Nc1ccc(NC(C)=O)cc1)C(=O)c1ccc(N2CCC(C)CC2)c([N+](=O)[O-])c1	12	4%	.	5.3	-5	.	6
Cc1cccc(C(=O)NC(=S)N2CCc3ccccc3C2)c1	3.2	20%	7	-2.1	-4	2.4	-6
Cn1c(=O)c(=O)n(C)c2cc(S(=O)(=O)N3CCCCCC3)ccc21	5.4	-8%	-22	2.6	-5	-3.7	-3
COc1ccccc1N1CCN(C(=O)c2cc(-c3ccc(C)cc3)on2)CC1	5.3	0%	6	-2.7	-6	-0.5	5
Cc1ccc(CSCCNC(=O)CSCc2ccc([N+](=O)[O-])cc2)cc1	-3.3	?	-7	-1.8	2	0.2	-9
O=[N+]([O-])c1ccc(O)c(C2=NNC(c3ccccc3F)C2)c1 (centres undefined)	-9.7	13%	39	3.5	20	1.9	9
Cc1ccc(C(=O)N/N=C2\CCSC2)cc1[N+](=O)[O-]	-3.6	-3%	6	-1.9	-3	-0.6	-1
CCCCN1C(=O)C2C3C=CC(C2C1=O)C1C2C(=O)N(CCCC)C(=O)C2C31 (centres undefined)	7.1	.	7	-0.9	-4	-1.3	-3
COc1ccc(CC(=O)N[C@@H]2c3cc(OC)c(OC)cc3C[C@H]2OCc2ccccc2)cc1	.	3%	.	-1.5	-7	.	.
CCN(CC)C(=O)n1c(Cc2ccccc2)nc2ccccc21	0.9	6%	-15	-3.5	5	2.4	-5
N=C1/C(=C\c2ccc(SCc3ccccc3)o2)C(=O)N=C2SC=NN12	0.3	2%	78*	2.3	1	?	0
COC(=O)c1cc(=O)n(Cc2cccs2)c(=Nc2ccc(F)cc2)s1	-1.9	0%	-4	-2.6	32	8.1	3
CC(C#N)(Cc1ccccc1)Nc1ccccc1 (centres undefined)	-5.0	.	-1	-1.2	-2	-1.2	-10
Cc1ccc(CN2CCN(Cc3cccc(-n4cccn4)c3)CC2CCO)cc1 (centres undefined)	0.4	6%	-17	-3.2	-11	-0.6	6
Cc1nn(-c2ncc(C(F)(F)F)cc2Cl)c(=O)n1-c1ccc(F)cc1	1.5	-4%	18	2.6	-3	4.4	-13
CC1(C)CC(=O)C=C(NCc2ccc(C(=O)O)cc2)C1	5.6	-6%	0	1.2	-4	-3.5	-3
C[C@@H]1ON(C)[C@H]2C[C@H]3c4cc(-c5cccc(F)c5)ccc4CCN3C(=O)[C@@H]12	.	2%	.	1.7	-14	.	.
COc1cccc2cc(C(=O)C3=C(O)C(=O)N(CCN4CCOCC4)C3c3cccc(Cl)c3)oc12 (centres undefined)	0.6	.	15	1.7	16	-2.6	.
CCSC1=NCCN1S(=O)(=O)c1ccc2ccccc2c1	-1.4	-2%	2	2.0	-5	-1.9	-8
Cc1cnccc1CN(C)Cc1nc(Cc2ccccc2Cl)no1	-8.7	14%	8	-0.9	2	-1.1	3
CC(C)(C)c1cc(-c2nc(N)nc(N)n2)cc(C(C)(C)C)c1	-3.9	0%	3	0.4	-4	-3.6	0
O=C(COc1cc(Cl)ccc1Cl)N1CCNC1=O	.	-6%	.	-5.0	-5	.	.
CN(Cc1cnn(-c2ccc(F)cc2)c1)Cc1nc(Cc2ccccc2)no1	-4.0	.	6	1.4	-7	-0.1	1
COc1ccccc1-n1ccnc(SCC(=O)NC2CCCC2)c1=O	.	-7%	7	0.2	-15	-1.6	.
CN(C(=O)C1CC1)C1CCS(=O)(=O)C1 (centres undefined)	-7.4	.	2	-2.1	3	2.8	-1
CCOC(=O)C1=C(C)NC(SC)=C(C#N)C1CC(C)C (centres undefined)	-2.0	-1%	-11	4.0	3	-0.4	-6
Nc1c(Cl)ncnc1N/N=C/c1ccncc1	1.5	14%	-12	-3.1	1	-2.2	6
COCCCNC(=S)Nc1ccc2c(c1)OCCO2	-0.7	.	-2	0.6	-2	?	.
O=C(OCCN1C(=O)c2cccc3c(N4CCOCC4)ccc(c23)C1=O)c1ccc(Cl)cc1	12*	-24%	33	-13	-5	-61	-9
COc1cc(C(=S)N2CCOCC2)ccc1OS(=O)(=O)c1ccccc1[N+](=O)[O-]	3.7	-4%	-3	-1.5	5	1.4	-35
COc1cccc2cc(C(=O)NCc3ccccc3Br)c(=O)oc12	-3.0	.	-1	-1.2	-3	5.1	-2
Cc1cccc(/C=N/NC(=O)c2ccc(Br)cc2)c1	0.4	0%	1	-1.7	-2	-1.2	0
CCN(CC)c1ccc(SS(=O)(=O)O)cc1	35*!	?	-7&34	-0.2&-1.7	37&-1	-0.6&-3.7	99*!

Screening data: PubChem, several laboratories
